Compound activity deposited in PubChem BioAssay by National Center for Advancing Translational Sciences (NCATS).
TRPV1 potentiator: enhances activation of the human vanilloid receptor TRPV1; TRPV1-expressing cells, Fluo-8 calcium influx, capsaicin EC20 potentiation; host cell line not named in the record; control for the full effect not named in the record; 320,000 compounds, 0.02% hits; potentiation, % at 8.33 µM; active means potentiation above 80%; inconclusive means 30% to 80%; inactive means below 30%; also: 0% is about no effect
Target sequence (Q8NER1 whole entry, looked up): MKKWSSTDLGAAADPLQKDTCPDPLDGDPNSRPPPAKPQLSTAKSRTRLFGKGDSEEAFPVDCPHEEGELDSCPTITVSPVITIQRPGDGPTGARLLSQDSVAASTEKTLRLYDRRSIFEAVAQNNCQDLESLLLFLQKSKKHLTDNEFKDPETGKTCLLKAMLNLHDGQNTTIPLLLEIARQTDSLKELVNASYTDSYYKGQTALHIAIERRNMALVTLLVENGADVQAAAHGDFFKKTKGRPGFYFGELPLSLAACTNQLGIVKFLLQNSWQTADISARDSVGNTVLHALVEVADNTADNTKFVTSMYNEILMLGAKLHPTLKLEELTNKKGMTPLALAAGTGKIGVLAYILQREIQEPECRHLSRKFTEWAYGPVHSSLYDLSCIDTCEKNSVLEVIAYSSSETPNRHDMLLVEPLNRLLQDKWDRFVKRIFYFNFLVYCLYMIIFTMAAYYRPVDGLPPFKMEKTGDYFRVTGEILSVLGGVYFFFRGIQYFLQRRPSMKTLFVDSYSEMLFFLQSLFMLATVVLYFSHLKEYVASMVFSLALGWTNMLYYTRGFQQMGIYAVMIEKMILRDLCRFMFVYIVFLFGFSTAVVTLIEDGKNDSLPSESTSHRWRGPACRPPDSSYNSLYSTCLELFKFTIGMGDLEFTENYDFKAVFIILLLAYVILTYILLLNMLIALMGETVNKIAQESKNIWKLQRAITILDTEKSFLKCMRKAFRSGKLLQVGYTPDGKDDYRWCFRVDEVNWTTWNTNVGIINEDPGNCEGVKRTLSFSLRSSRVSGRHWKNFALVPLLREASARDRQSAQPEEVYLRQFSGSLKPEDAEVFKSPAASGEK
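Cells expressing TRPV1 were dye-loaded with Fluo-8 and read kinetically: 10 s baseline, 3 min after compound (agonist portion), then 2 min after EC20 capsaicin (allosteric enhancer portion). Calcium-bound dye fluorescence at 480/520 nm.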
D2 PAM: potentiates the human D2 dopamine receptor allosterically | P14416 | DiscoveRx D2 beta-arrestin cells, luminescence, 90 min; 100% = 57 uM dopamine signal | potentiation, % (test concentration not listed) | 360,000 compounds, 0.23% hits | AID 624464; active = potentiation of 50% or more; inconclusive = 30% to 50%; inactive = 30% or less;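 also: compound concentration not given in the record; tested on top of an EC20 dose of dopamine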
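D2 cells co-treated with compound plus 50 nM dopamine (EC20) for 90 min at 37 deg C to detect potentiation. Beta-arrestin recruitment was read as enzyme-fragment luminescence after 1 h at ambient temperature. Full response was set by 57 uM dopamine.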
Sfp inh: blocks B. subtilis Sfp PPTase activity; AID 1490; 310,000 compounds, 3.5% hits; Q9F4F7; Potency, µM, for the others: max response, negative = inhibition, usual class: inhibitors; Biochemical Sfp PPTase activity, qHTS; active = well fitted inhibition curve with a large enough effect; inconclusive = small, poorly fitted or top-dose-only effect, or another doubt; inactive = no such curve, though single readings can be large or run the other way;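 also: the enzyme is Sfp with the accession as filed and its product quenches rhodamine fluorescence; potency is read from the fitted curve at half-maximal effect; 0% = enzyme reaction without inhibitor and -100% = no enzyme wells; top concentration of the series not given in the record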
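Fluorescence-quenching assay with 15 nM Sfp, 5 uM rhodamine-CoA and 12.5 uM BHQ-2-labelled ybbR peptide in pH 7.6 Hepes/MgCl2 buffer. Enzyme was pre-incubated with compound for 15 min at room temperature. Rate was taken from the 30-min fluorescence change (525/598 nm).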
PINK1 modulator: changes PINK1 expression. PINK1 immunofluorescence, high-content cytometry, 24 h. Potency, µM (doses to about 76.6 µM), inactives show at the highest dose activation (PINK1 increase), hits mostly activators. 410,000 compounds, 0.2% hits. AID 624263; active = well fitted activation curve with a large enough effect; inconclusive = small, poorly fitted or top-dose-only effect; inactive = flat fitted curve, though single readings scatter; cell line not stated here;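 also: potency is read from the fitted curve at half-maximal effect; % of control where 0% means no effect; nearly all actives have a fitted effect of over 65% in size; a mitochondrial uncoupler was the plate control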
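Decision-based qHTS: stable cells, 24 h exposure to five compound concentrations, CCCP as control. Fixed cells stained for PINK1 plus nuclear, mitochondrial and cell markers, cytometer read.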
CtBP-E1A inh: blocks the CtBP interaction with E1A; activity change, % (no concentration beside the values); 340,000 compounds, 0.49% hits; AID 651724; AlphaScreen GST-E1A/His-CtBP binding, 1536-well; hits give low values; control for the full effect not named in the record; in the data active means activity change below about -65%; inconclusive means about -30% to -65%; inactive means above about -30%; also: % is scaled to controls: 0 for no effect and ±100 for the full control effect
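Protein mix (5X: 125 nM each GST-E1A, His-CtBP) was incubated with pinned compound 2 h at 37 deg C in dark, in 50 mM Tris pH 8.0 buffer with 300 mM NaCl. Glutathione donor and nickel acceptor beads followed; AlphaScreen signal read after 1 h.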
D2 agonist: human D2 receptor agonism in beta-arrestin assay; AID 624465; P14416; 360,000 compounds, 0.084% hits; activation, % (concentration not given with the values); DiscoveRx PathHunter D2 beta-arrestin, luminescence, 90 min; 100% = 57 uM dopamine signal; in the data active = activation above about 40%; inconclusive = about 15% to 40%; inactive = below about 15%; also: the text of the record calls up to 30% inactive
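DiscoveRx PathHunter D2 beta-arrestin cells (2,100/well) attached overnight, then compound-stimulated 90 min at 37 C in HBSS/10 mM HEPES/0.1% Tween-20 buffer; beta-galactosidase complementation read by luminescence after 1 h at ambient temperature. Dopamine 57 uM final (EC100) as control.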
Six1-Eya2 inh: Six1/Eya2 interaction inhibition; AlphaScreen GST-Six1/His-Eya2 binding, biochemical; hits give low values; control for the full effect not named in the record; activity change, % (no concentration beside the values); 360,000 compounds, 0.56% hits; in the data active = activity change below about -65%; inconclusive = about -30% to -65%; inactive = above about -30%; also: % is scaled to controls: 0 for no effect and ±100 for the full control effect
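Compounds are tested against tagged Six1 and Eya2 proteins bridged by glutathione donor and nickel acceptor beads; after a one-hour incubation at 37 °C without light, AlphaScreen emission is recorded.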
* hit, by the source's call; ? = inconclusive; . = not tested or not shown; & = joins results of further samples; [ ] = another dose, or the depositor's remark.

structure	TRPV1 potentiator	D2 PAM	Sfp inh	PINK1 modulator	CtBP-E1A inh	D2 agonist	Six1-Eya2 inh
COCCNc1nc(NCc2ccccc2)nc2ccsc12	.	-19	.	0.5%	0	-1.3	3
CNC(=O)C(=O)NCC(c1cccs1)S(=O)(=O)c1ccc(F)cc1 (stereo not given)	-1	-2	7%	-0.2%	9	-2.7	6
N#Cc1cccc(S(=O)(=O)NCC(=O)NCc2ccc3c(c2)OCO3)c1	5	1	.	0.6%	6	-0.1	3
CCc1nc(NCCC(C)C)c(C#N)c2c1CCCC2	-14	3	7%	3.6%	3	-0.9	-2
CNS(=O)(=O)c1cc(OC)c(OC)cc1CC(=O)OC	-2	-6	20%	2.5%	4	-2.1	10
CCSc1nc(C)nc2c1oc1ccccc12	-13	-12	-5%	0.3%	7	-1.5	6
Cc1ccc(S(=O)(=O)N(C#N)c2nc(C)cc(C)n2)cc1	14	24	5%	-2.6%	0	-0.4	4
O=c1cnnc(Nc2ccc(Cl)c(C(F)(F)F)c2)[nH]1	16	-6	10%	-0.9%	-4	1.2	-4
CC1CCCCC1NCC(=O)NCc1ccc(F)cc1 (stereo not given)	-6	-10	-15%	-0.9%	-26	-3.8	0
CC1(C)CC(=O)C=C(NNC(=O)c2cccnc2)C1	-3	-5	24%	0.6%	6	0.8	5
N#Cc1ccc(C(=O)Nc2nc(-c3cccs3)c(C(=O)C(F)(F)F)s2)cc1	-14	-5	7%	6.3µM*	6	-1.4	-4
CN1CCN(S(=O)(=O)c2ccc(NC(=O)c3ccc(F)cc3)cc2)CC1	?	-7	18%	0.4%	-1	-2.5	-7
Cc1ccc(S(=O)(=O)Nc2ccc3ccccc3c2)cc1	.	-18	.	4.3%	13	-4.1	1
O=C(NNc1nc2c(F)cccc2s1)c1cc(=O)c2ccccc2o1	13	-3	-15%	1.9%	-6	4.3	-17
O=C(c1ccncc1)N1CCN(S(=O)(=O)c2cccc(Cl)c2)CC1	2	9	.	1.0%	-1	-0.5	9
Nc1nc(Nc2ccccc2)nc2c1ncn2[C@@H]1O[C@H](CO)[C@@H](O)[C@H]1O	.	11	.	3.3%	0	-3.6	-1
COC(=O)c1ccc(-c2nc(O)c(C)s2)cc1	1	-3	14µM*	0.2%	-11	-8.7	-8
N#C/C(=C\c1cccn1S(=O)(=O)c1cccc(C#N)c1)S(=O)(=O)c1ccc(F)cc1	.	-3	.	0.8%	0	-3.2	-1
COC(=O)c1ccc(C2CC(=O)NC3=C2C(=O)CCC3)cc1 (stereo not given)	3	-2	4%	-0.2%	13	-5.5	-1
CC(C)(C)c1csc(Sc2ncccc2[N+](=O)[O-])n1	-19	-14	-23%	0.9%	.	-2.1	-21
Cc1ccccc1Cn1c2ccccc2c2cn[nH]c(=O)c21	-31	-3	3%	0.5%	-4	-3.1	0
Cc1noc(NS(=O)(=O)c2ccc(NC(=O)c3oc4ccc(Cl)cc4c3C)cc2)c1C	1	-17	2%	2.0%	-10	2.1	-22
O=[N+]([O-])C1=CC=C2C(=NC3(CCCCC3)N2O)C1=NC1CCCCC1	-11	-13	-18%	.	8	4.1	-10
COc1ccc(C(=O)NNC(=O)c2ccc3ccccc3c2O)cc1	12	-3	18%	-1.0%	-2	-5.8	-1

3 compounds already listed, ordered by heavy-atom count, ascending:
structure	TRPV1 potentiator	D2 PAM	Sfp inh	PINK1 modulator	CtBP-E1A inh	D2 agonist	Six1-Eya2 inh
COc1ccc(C(=O)NNC(=O)c2ccc3ccccc3c2O)cc1	12	-3	18%	-1.0%	-2	-5.8	-1
N#C/C(=C\c1cccn1S(=O)(=O)c1cccc(C#N)c1)S(=O)(=O)c1ccc(F)cc1	.	-3	.	0.8%	0	-3.2	-1
Cc1noc(NS(=O)(=O)c2ccc(NC(=O)c3oc4ccc(Cl)cc4c3C)cc2)c1C	1	-17	2%	2.0%	-10	2.1	-22

Complete entries from above.
Profile of `COC(=O)c1ccc(-c2nc(O)c(C)s2)cc1` : TRPV1 potentiator = 1; D2 PAM = -3; Sfp inh = 14µM*; PINK1 modulator = 0.2%; CtBP-E1A inh = -11; D2 agonist = -8.7; Six1-Eya2 inh = -8
Profile of `O=[N+]([O-])C1=CC=C2C(=NC3(CCCCC3)N2O)C1=NC1CCCCC1` : TRPV1 potentiator = -11; D2 PAM = -13; Sfp inh = -18%; PINK1 modulator = .; CtBP-E1A inh = 8; D2 agonist = 4.1; Six1-Eya2 inh = -10

(cont.)
structure	TRPV1 potentiator	D2 PAM	Sfp inh	PINK1 modulator	CtBP-E1A inh	D2 agonist	Six1-Eya2 inh
O=C(Cc1ccccc1)O/N=C1\CCCc2ccccc21	-17	-2	20%	1.1%	-3	-7.5	7
COc1ccc(S(=O)(=O)N2CCOCC2)cc1NC(=O)COC(=O)C1=COCCO1	2	-10	19%	-0.6%	.	-2.5	2
CCc1ccc(C2=NN(C(=O)CCC(=O)O)C(c3cccs3)C2)cc1 (stereo not given)	?	-2	10%	-0.4%	-4	0.5	14
CCOP(=O)(c1ccc(N(C)C)cc1)C(O)c1ccccc1F (stereo not given)	-3	-7	10%	1.3%	1	-8.0	5
C[C@@H]1CN([C@@H](C)CO)C(=O)CCCn2nncc2CO[C@H]1CN(C)C(=O)Nc1ccc2c(c1)OCO2	.	.	.	0.0%	5	0.4	0
O=C(NC1CC1)C1=C[C@H](c2ccc(C(F)(F)F)cc2)C[C@H](OCc2ccc(CO)cc2)O1	-16	-10	0%	2.1%	.	-4.8	-3
Cc1ccc2cc(CN(Cc3nnnn3Cc3ccco3)CC3CCCO3)c(=O)[nH]c2c1C (stereo not given)	7	-5	-75%	13%	-12	-0.3	0
Cc1ccc(Cl)cc1NC(=O)c1ocnc1C	?	-4	8%	?	7	0.4	0
CCCSc1cc(N2CCN(C)CC2)nc(-c2ccc(OC)cc2)n1	10	-13	-11%	7.7%	-20	-3.9	-6
CCOc1cc(C(=O)Nc2ccc(S(=O)(=O)N3CCCCC3)cc2)ccc1OCC(=O)N1CCOCC1	-12	-10	.	1.6%	-8	-6.3	3
Nc1ccc(-c2c3ccc(=O)cc-3oc3cc(O)ccc23)cc1C(=O)O	-21	-14	-11%	7.2%	-3	-10.0	-12
COc1ccc(CNC(=O)CN2C(=O)COc3ccc(S(=O)(=O)N4CCOCC4)cc32)cc1	-4	3	15%	0.1%&-0.9%	3	7.2	3
Cc1cc(C(=O)NNC(=O)CCN2CCN(c3ccccc3)CC2)c2ccccc2n1	-35	-2	5%	3.8%	5	3.9	9
OCCNCC1(O)C2CC3CC(C2)CC1C3 (stereo not given)	-1	-12	17%	-4.1%	2	-0.4	4
CC(=O)c1ccc(S(=O)(=O)N2CCc3ccccc3C2)cc1	3	-1	11%	0.9%	-5	-3.5	3
CCOc1ccc(NC(=O)C2CCN(C(=O)NCc3ccccc3)CC2)cc1	-8	-3	2%	-1.5%	10	1.3	4
CN(C(=O)COC(=O)c1ccccc1Nc1ccccc1)c1c(N)n(Cc2ccccc2)c(=O)[nH]c1=O	-6	-8	.	0.0%	4	-4.5	-5
CC(C(=O)N1CCC(C(N)=O)CC1)N(c1ccc(Oc2ccccc2)cc1)S(C)(=O)=O (stereo not given)	-8	-5	11%	-3.3%[38.3 µM]	7	-3.2	0
COc1ccccc1S(=O)(=O)N(C)C[C@@H]1OCc2cnnn2CCCC(=O)N([C@H](C)CO)C[C@@H]1C	.	.	.	1.4%	0	-1.7	-2
CSc1sc(-c2ccnc(SCCS(C)(=O)=O)n2)c(-c2ccccc2)c1C#N	-6	-1	-5%	1.6%	7	1.5	-9
COc1ccc(NC(=O)COC(=O)Cc2ccc(-c3ccccc3)cc2)c(OC)c1	5	2	5%	0.4%	9	-2.3	4
CCN(CC)S(=O)(=O)c1cccc(C(=O)Nc2ccccc2C(=O)N2CCOCC2)c1	-18	-10	-2%	0.1%	4	0.7	0
Cc1cc(NC(=O)COC(=O)[C@H](Cc2ccccc2)NC(=O)c2ccco2)no1	.	4	.	-1.4%	4	6.2	2
O=C(N/N=C/c1ccc(O)cc1)c1ccncc1	20	-5	5%	0.7%	-14	-2.7	-4
CCCCC(=O)N1CCN(c2nc3ccc(Br)cc3s2)CC1	-26	-12	-11%	0.4%	0	3.7	0
CCN(CC)c1ccc(S(=O)(=O)N2CCOCC2)cc1NC(=O)CSc1ccccc1	-16	-5	.	-0.8%	-20	-0.3	3
O=C(CSc1nc(-c2ccccc2)cc(C(F)(F)F)n1)NCc1cccs1	1	-24	-19%	6.6%	3	-4.1	1
CC(=O)N1CCN(C(=O)COC(=O)COc2c(C)cc(C)cc2C)CC1	0	-10	.	2.0%	-4	0.2	2

Random draw from the library. About 3.7% of those tested had a hit in this group.
